# MLL AF4-AF9 inh = MLL-AF4/AF9 protein interaction inhibition; P42568; AlphaScreen, biotin-AF4 peptide binding to FLAG-AF9; inhibition, % at 10 µM; 0.47% of 350,000 active;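 active = every replicate reaching a set inhibition limit, whatever the replicate mean, cut at about 25% in these data; inconclusive = mean inhibition reaches that limit but some replicates miss it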;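 note: 0% = plate neutral control median and 100% = total signal loss; the record names both 10 and 1 µM as test concentration; the first replicate is given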
# Target sequence (P42568 whole entry, looked up): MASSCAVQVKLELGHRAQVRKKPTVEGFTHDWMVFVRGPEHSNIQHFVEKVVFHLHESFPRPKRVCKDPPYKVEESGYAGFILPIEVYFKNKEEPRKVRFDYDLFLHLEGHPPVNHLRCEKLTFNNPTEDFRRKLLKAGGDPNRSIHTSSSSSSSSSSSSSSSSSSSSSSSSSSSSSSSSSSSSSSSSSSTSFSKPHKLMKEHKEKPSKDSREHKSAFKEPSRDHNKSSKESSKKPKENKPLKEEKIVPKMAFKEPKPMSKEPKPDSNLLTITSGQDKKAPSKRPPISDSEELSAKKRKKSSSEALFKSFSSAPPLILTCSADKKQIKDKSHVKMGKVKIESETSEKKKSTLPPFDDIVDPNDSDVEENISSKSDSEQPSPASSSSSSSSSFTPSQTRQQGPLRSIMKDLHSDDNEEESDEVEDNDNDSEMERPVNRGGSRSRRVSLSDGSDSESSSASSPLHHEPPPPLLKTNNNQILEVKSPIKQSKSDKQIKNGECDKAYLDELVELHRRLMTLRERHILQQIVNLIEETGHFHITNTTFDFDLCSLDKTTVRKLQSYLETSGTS
# FGF22 binding = FGF22 (human) thermal shift binding | Q9HCT0 | recombinant FGF22 thermal shift, SYPRO orange fluorescence; percent of sucrose octasulfate shift, DMSO zero | calls only at 9.99 µM | 1.5% of 340,000 active | AID 651658;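 active = melting point raised past a set limit in the mean and every replicate; inconclusive = no clear call; three in four hits are not shown here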
# Target sequence (Q9HCT0 whole entry, looked up): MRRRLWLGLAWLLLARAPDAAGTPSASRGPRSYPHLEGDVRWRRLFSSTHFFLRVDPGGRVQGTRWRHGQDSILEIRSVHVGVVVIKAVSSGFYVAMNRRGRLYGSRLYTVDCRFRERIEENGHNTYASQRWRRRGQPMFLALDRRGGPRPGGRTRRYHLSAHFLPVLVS
# An asterisk follows results filed as active; i = inactive; ? = inconclusive; & = joins results of further samples.
# Sequence of screens – MLL AF4-AF9 inh, FGF22 binding
> C[C@@H]1CN([C@H](C)CO)C(=O)Cc2cc(NC(=O)CCC(F)(F)F)ccc2O[C@H]1CN(C)Cc1ccc2c(c1)OCO2
→ -0.8, i
> CO[C@@H]1CN(C)C(=O)c2cc(NC(=O)Nc3ccc4c(c3)OCO4)ccc2OC[C@H](C)NC[C@@H]1C
→ 5.1, i
> COc1ccc(S(=O)(=O)N(C)C[C@@H]2Oc3ccc(NS(=O)(=O)c4cccs4)cc3C(=O)N([C@H](C)CO)C[C@H]2C)cc1
→ -7.6, i
> CO[C@H]1CN(C)C(=O)c2ccc(NS(=O)(=O)c3ccccc3)cc2OC[C@@H](C)N(Cc2cccnc2)C[C@@H]1C
→ -1.7, i
> C[C@@H]1CN([C@H](C)CO)S(=O)(=O)c2ccc(/C=C/c3ccccc3)cc2O[C@H]1CN(C)C(=O)CN1CCOCC1
→ 5.8, i
> C[C@H](CO)N1C[C@H](C)[C@H](CN(C)Cc2ccncc2)Oc2ccc(NS(C)(=O)=O)cc2C1=O
→ -1.5, i
> C[C@H](CO)N1C[C@H](C)[C@H](CN(C)Cc2ccc(F)cc2)Oc2ncc(C3=CCCC3)cc2C1=O
→ -2.6, i
> Cc1ccc(S(=O)(=O)N(C)c2cccc3c2S(=O)(=O)N([C@H](C)c2ccccc2)C[C@@H](COCc2ccccc2)O3)cc1
→ 0.3, i
> C[C@H]1CN([C@@H](C)CO)C(=O)CCCn2nncc2CO[C@@H]1CN(C)S(=O)(=O)c1ccc(C#N)cc1
→ -0.7, i
> C[C@H]1CN([C@@H](C)CO)C(=O)CCCn2nncc2CO[C@@H]1CN(C)S(=O)(=O)c1cccs1
→ -7.7&-4.2, i

# Reprinted from the part before: two compounds, then new ones.
# Sequence of screens – MLL AF4-AF9 inh, FGF22 binding
> C[C@H]1CN([C@@H](C)CO)C(=O)CCCn2nncc2CO[C@@H]1CN(C)S(=O)(=O)c1ccc(C#N)cc1
→ -0.7, i
> C[C@H]1CN([C@@H](C)CO)C(=O)CCCn2nncc2CO[C@@H]1CN(C)S(=O)(=O)c1cccs1
→ -7.7&-4.2, i
> CC(C)NC(=O)Nc1cccc2c1O[C@H](CN(C)CC1CCCCC1)[C@H](C)CN([C@@H](C)CO)C2=O
→ 0.2, i
> CC(C)NC(=O)Nc1ccc2c(c1)C(=O)N([C@H](C)CO)C[C@H](C)[C@@H](CN(C)S(=O)(=O)c1ccc(Cl)cc1)OCCCC[C@H](C)O2
→ 2.4, i
> C[C@H](CO)N1C[C@H](C)[C@@H](CN(C)S(=O)(=O)c2cccs2)Oc2ccc(NC(=O)CCCN(C)C)cc2C1=O
→ -1.7, i
> COCc1cn(CC[C@H]2CC[C@@H](NC(=O)Nc3c(C)noc3C)[C@@H](CO)O2)nn1
→ -1.2, i
> COc1ccc(CN(C)C[C@@H]2OCCCC[C@H](C)Oc3ccc(NC(=O)c4ccncc4)cc3C(=O)N([C@H](C)CO)C[C@H]2C)cc1
→ -0.7, i
> Cc1ccccc1CN1[C@@H](CC(C)C)COc2cc(Br)ccc2S1(=O)=O
→ -2.0, i
> COc1ccc(NC(=O)N(C)C[C@H]2Oc3ccc(NS(=O)(=O)c4c(C)noc4C)cc3C(=O)N([C@@H](C)CO)C[C@@H]2C)cc1
→ -1.7, i
> COc1ccc(-c2ccc3n(c2=O)C[C@@H]2[C@@H](CO)[C@H](C(=O)N4CCN(C)CC4)N[C@H]32)cc1
→ -0.5, i
> CCCNC(=O)N1CC2(C1)CN(C(=O)CC1CC1)[C@@H](CO)c1c2c2ccc(OC)cc2n1C
→ -4.6, i
> COCC(=O)N1CC(=O)N2[C@@H](CO)[C@@H](c3ccc(C#CCc4ccccc4)cc3)[C@@H]2C1
→ -3.3, i
> O=C(C[C@H]1CC[C@@H](NC(=O)C2CC2)[C@H](CO)O1)NC1CCC1
→ -0.7, i
> Cc1ccccc1-c1ccc([C@H]2[C@H](CO)N3CCCCN(S(=O)(=O)Cc4ccccc4)C[C@@H]23)cc1
→ 4.2, i
> Cc1noc(C)c1NC(=O)N(C)C[C@@H]1Oc2ccc(NC(=O)Nc3cccc4ccccc34)cc2C(=O)N([C@@H](C)CO)C[C@@H]1C
→ -5.3, i
> CC(C)NC(=O)Nc1ccc2c(c1)C(=O)N([C@H](C)CO)C[C@@H](C)[C@H](CN(C)Cc1ccc(Oc3ccccc3)cc1)O2
→ 1.3, i
> Cc1ccc(S(=O)(=O)N[C@H]2CC[C@@H](CCn3cc(-c4cccnc4)nn3)O[C@H]2CO)cc1
→ -2.1, i
> Cc1cccc2nc(-c3ccccc3)c(-c3ccc(CN4CCC5(CC4)CNc4ccccc45)cc3)nc12
→ 2.6, i
> C[C@H](CO)N1C[C@H](C)[C@H](CN(C)Cc2ccc(-c3ccccc3)cc2)Oc2c(NS(=O)(=O)c3cccs3)cccc2C1=O
→ -2.8, i
> CCC(=O)NC[C@H]1[C@H](c2ccc(-c3cccc(F)c3)cc2)[C@H](CO)N1C(=O)CC
→ 0.0, i
> CN1C(=O)c2cc(NC(=O)Cc3cccs3)ccc2OC[C@H]2O[C@@H](CC(=O)NCC3CC3)CC[C@@H]21
→ -1.3, i
> C[C@@H]1CN([C@@H](C)CO)C(=O)c2cc(-c3ccc(F)cc3)cnc2O[C@@H]1CN(C)CC1CCCCC1
→ 4.8, i
> C[C@H]1CN([C@@H](C)CO)S(=O)(=O)c2ccc(-c3ccccc3)cc2O[C@H]1CN(C)Cc1cccc(F)c1
→ 2.0, i
> COc1ccc2c3c(n(C)c2c1)[C@H](CO)N(Cc1ccccc1Cl)CC31CCN(C(C)=O)CC1
→ -1.6, i
> C[C@@H]1CN([C@H](C)CO)C(=O)c2cc(C#Cc3ccccc3F)cnc2O[C@H]1CN(C)C(=O)c1ccc2c(c1)OCO2
→ 2.8, i
> C[C@@H]1CN([C@@H](C)CO)C(=O)c2cc(NS(=O)(=O)c3ccc(F)cc3)ccc2O[C@@H](C)CCCCO[C@@H]1CN(C)C(=O)CCC(F)(F)F
→ 3.1, i
> CCCC#Cc1ccc2c(c1)O[C@H](CN(C)C(=O)NC(C)C)[C@@H](C)CN([C@H](C)CO)S2(=O)=O
→ 0.9, i
> O=C(C[C@@H]1C=C[C@@H](NC(=O)c2ccccn2)[C@@H](CO)O1)NCc1cc(F)cc(F)c1
→ 1.5, i
> C[C@@H]1CN([C@H](C)CO)C(=O)c2cccc(NC(=O)C3CCCCC3)c2O[C@@H]1CN(C)Cc1ccccc1
→ -8.1, i
> O=C(Nc1ccccc1)N1CCCCN2[C@H](CO)[C@@H](c3ccc(Br)cc3)[C@H]2C1
→ 0.5, i
> COc1ccccc1-c1cnc2c(c1)C(=O)N([C@@H](C)CO)C[C@H](C)[C@@H](CN(C)Cc1ccc(C(=O)O)cc1)O2
→ -14, i
> COCC(=O)N1C[C@H](C)[C@@H](OC)CN(C)C(=O)c2ccc(NS(C)(=O)=O)cc2OC[C@@H]1C
→ -2.3, i
> CNC[C@@H]1Oc2cc(C#CC3CCCCC3)ccc2S(=O)(=O)N([C@@H](C)CO)C[C@H]1C
→ -4.4, i
> CCCC(=O)N1CC2(CN(C(=O)NC(C)C)C2)c2c([nH]c3cc(OC)ccc23)[C@H]1CO
→ -4.0, i
> CCC(=O)N(C)C[C@@H]1[C@@H](c2ccc(-c3cccnc3)cc2)[C@H](CO)N1C(C)=O
→ 0.0, i
> C[C@@H]1CN([C@H](C)CO)C(=O)CCCn2cc(nn2)CO[C@@H]1CN(C)Cc1ccc2c(c1)OCO2
→ 0.4, i
> CN1C(=O)c2cc(NC(=O)NCc3ccccc3)ccc2OC[C@@H]2O[C@H](CC(=O)NCC3CCCCC3)CC[C@H]21
→ -15, i
> O=C(C[C@@H]1C[C@H]2c3cc(NC(=O)Nc4ccccc4)ccc3O[C@H]2[C@@H](CO)O1)NC1CCCCC1
→ 1.3, i
> C/C=C/c1ccc2c(c1)O[C@@H](CN(C)C(=O)c1cccnc1)[C@H](C)CN([C@@H](C)CO)S2(=O)=O
→ -2.3, i
> C[C@H](CO)N1C[C@H](C)[C@@H](CN(C)Cc2ccc(Oc3ccccc3)cc2)Oc2ccc(NS(=O)(=O)c3ccc(Cl)cc3)cc2C1=O
→ 3.7, i
> CC(C)NC(=O)N(C)C[C@H]1Oc2ccc(NC(=O)c3ccncc3)cc2CC(=O)N([C@@H](C)CO)C[C@H]1C
→ -2.4, i
> CCC(=O)N1C[C@@H](C)[C@H](OC)CN(C)C(=O)c2ccc(NC(=O)c3ccccc3)cc2OC[C@@H]1C
→ -3.4, i

# More results:
compound | MLL AF4-AF9 inh | FGF22 binding
O=C(C[C@@H]1C[C@H]2c3cc(NS(=O)(=O)c4ccccc4)ccc3O[C@H]2[C@@H](CO)O1)N1CCOCC1 | -1.7 | i
COc1ccccc1-c1ccc2c(c1)O[C@H](CN(C)C)[C@@H](C)CN([C@H](C)CO)S2(=O)=O | 0.3 | i
CC=Cc1ccc2n(c1=O)C[C@H]1[C@H](CO)[C@@H](C(=O)NCC)[C@@H]2N1C(=O)c1ccc(F)cc1 (mixture of isomers) | -0.7 | i
COc1ccccc1C#Cc1ccc([C@@H]2[C@@H](CO)N3CCCCN(CCC(F)(F)F)C[C@@H]23)cc1 | 5.5 | i
C[C@H](NC(=O)C[C@H]1C[C@H]2c3cc(NS(C)(=O)=O)ccc3O[C@H]2[C@H](CO)O1)c1ccccc1 | -0.8 | i
CCCC#Cc1cnc2c(c1)C(=O)N([C@@H](C)CO)C[C@H](C)[C@H](CN(C)C(=O)NC1CCCC1)O2 | -3.6 | i
C[C@@H](O)C#Cc1ccc([C@H]2[C@H]3CN(CC4CCOCC4)CCCCN3[C@H]2CO)cc1 | 0.6 | i
C[C@H](CO)N1C[C@H](C)[C@@H](CN(C)S(=O)(=O)c2cccc(C#N)c2)OCc2ccccc2-c2c(n(C)c3ccccc23)C1=O | -3.7 | i
C[C@H]1CCCCO[C@@H](CN(C)C(=O)CCCN(C)C)[C@@H](C)CN([C@@H](C)CO)C(=O)c2cc(NS(=O)(=O)c3ccc(Cl)cc3)ccc2O1 | 6.0 | i
C[C@@H]1CN([C@@H](C)CO)C(=O)c2cc(/C=C/c3ccccc3)cnc2O[C@H]1CN(C)C(=O)Cc1ccccn1 | 1.1 | i
C[C@@H](NC(=O)C[C@@H]1CC[C@H](NC(=O)CN2CCOCC2)[C@@H](CO)O1)c1ccccc1 | 2.0 | i
COc1ccc(CN(C)C[C@@H]2OCCCC[C@@H](C)Oc3ccc(NS(=O)(=O)c4ccccc4)cc3C(=O)N([C@H](C)CO)C[C@@H]2C)cc1 | -0.6 | i
C[C@@H]1CN([C@H](C)CO)C(=O)Cc2cc(N(C)C)ccc2O[C@@H]1CN(C)S(=O)(=O)c1ccc(F)cc1 | 2.3 | i
COc1ccc(COCC23Oc4ccccc4[C@H]([C@H]2CO)n2c(c4c(c(C(C)=O)c2=O)C(=O)N(C)C4=O)N3C)cc1 | 7.5 | i
C[C@@H]1CN([C@H](C)CO)C(=O)c2cc(NC(=O)c3ccncc3)ccc2O[C@@H](C)CCCCO[C@H]1CN(C)Cc1ccc(C(=O)O)cc1 | -2.5 | i
CC(=O)N[C@@H]1CC[C@@H](CCNC(=O)C2CCC2)O[C@@H]1CO | -0.6 | i
CCS(=O)(=O)Nc1ccc2c(c1)C(=O)N(C)C[C@@H](OC)[C@@H](C)CN(CC1CCCCC1)[C@H](C)CO2 | -0.4 | i
C[C@@H]1CN([C@H](C)CO)C(=O)c2cccc(NC(=O)Nc3ccccc3)c2O[C@@H]1CN(C)S(=O)(=O)c1ccc(F)cc1 | 4.3 | i
CCCN1[C@@H]2c3ccc(-c4ccccc4F)c(=O)n3C[C@@H]2[C@@H](CO)[C@@H]1C(=O)NC1CCC1 | 0.5 | i
COc1ccc2c3c([nH]c2c1)[C@H](CO)N(C(=O)NC(C)C)CC31CN(C(=O)c2ccncc2)C1 | 1.3 | i

# Single entries from the entries so far.
# COc1ccc(CN(C)C[C@@H]2OCCCC[C@@H](C)Oc3ccc(NS(=O)(=O)c4ccccc4)cc3C(=O)N([C@H](C)CO)C[C@@H]2C)cc1 | MLL AF4-AF9 inh: -0.6
# COc1ccccc1-c1ccc2c(c1)O[C@H](CN(C)C)[C@@H](C)CN([C@H](C)CO)S2(=O)=O | MLL AF4-AF9 inh: 0.3
# CCS(=O)(=O)Nc1ccc2c(c1)C(=O)N(C)C[C@@H](OC)[C@@H](C)CN(CC1CCCCC1)[C@H](C)CO2 | MLL AF4-AF9 inh: -0.4
# C[C@@H]1CN([C@H](C)CO)C(=O)Cc2cc(N(C)C)ccc2O[C@@H]1CN(C)S(=O)(=O)c1ccc(F)cc1 | MLL AF4-AF9 inh: 2.3

# Other results.
compound | MLL AF4-AF9 inh | FGF22 binding
C[C@@H]1CCCCO[C@H](CN(C)Cc2ccccc2)[C@H](C)CN([C@H](C)CO)C(=O)c2cc(NC(=O)Nc3ccc4c(c3)OCO4)ccc2O1 | ? | i
C[C@@H]1CN([C@H](C)CO)C(=O)Cc2cc(NC(=O)Nc3ccc(F)cc3)ccc2O[C@@H]1CN(C)Cc1ccc(Oc2ccccc2)cc1 | -0.2 | i
CC(C)NC(=O)N(C)C[C@H]1OCCCC[C@H](C)Oc2ccc(NC(=O)CCC(F)(F)F)cc2C(=O)N([C@H](C)CO)C[C@@H]1C | 0.2 | i
CCCC(=O)Nc1ccc2c(c1)C(=O)N(C)[C@@H]1CC[C@@H](CC(=O)NCc3ccccc3Cl)O[C@@H]1CO2 | 0.3 | i
O=C(C[C@H]1C=C[C@@H](NC(=O)C2CC2)[C@H](CO)O1)NCc1ccccc1Cl | -0.2 | i
O=C(C[C@@H]1C=C[C@@H](NC(=O)c2ccc(F)cc2)[C@@H](CO)O1)NCCc1ccncc1 | -2.0 | i
CO[C@@H]1CN(C)C(=O)c2ccc(NC(=O)c3cc(C)on3)cc2OC[C@@H](C)N(S(=O)(=O)c2cccc(F)c2)C[C@H]1C | 1.0 | i
CC=Cc1ccc2n(c1=O)C[C@@H]1[C@@H](CO)[C@H](C(=O)Nc3ccc(-c4ccccc4)cc3)[C@H]2N1C(=O)CC (mixture of isomers) | 20 | i

# High-throughput results: PubChem BioAssay, Broad Institute

# Only part of the results is shown. The share of hits here may be higher or lower than overall.
